CBX7 inh: CBX7 inhibition, primary AlphaScreen | AlphaScreen His6-CBX7 / biotin-H3K27me3 peptide binding; stronger effect = lower value | normalised signal (fraction of DMSO) (no concentration beside the values) | hit rate 1.1% among 66,000 | AID 1224903; in the data active means normalised signal below about 0.5;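 further: 100 nL library stock added to about 20 µL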
Target sequence (O95931 whole entry, looked up): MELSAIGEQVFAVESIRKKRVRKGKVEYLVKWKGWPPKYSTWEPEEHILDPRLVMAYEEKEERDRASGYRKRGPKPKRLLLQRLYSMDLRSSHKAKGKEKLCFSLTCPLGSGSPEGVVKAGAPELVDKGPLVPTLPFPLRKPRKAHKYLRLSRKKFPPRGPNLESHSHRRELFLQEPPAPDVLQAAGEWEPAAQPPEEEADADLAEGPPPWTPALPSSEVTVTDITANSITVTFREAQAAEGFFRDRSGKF
CBX7 inh z-score: second read-out of CBX7 inh, no call of its own (marks repeat the call); z-score; measured here: z-score of CBX7 signal; some inactives read as strong as hits; reference of the scale not given here;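 same signal on another scale; lower means less binding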
Active calls of the source: *; & = joins results of further samples; ! = not active in a repeat. A portion of the library; count on the stated rates, not on these rows.

Start of the listing, in advance:
SMILES	CBX7 inh	CBX7 inh z-score
COc1ccc(-c2noc(CN(C)S(=O)(=O)c3ccc(C)cc3)n2)cc1	1	0.31
COc1ccccc1OCC(O)Cn1c(=N)n(CCN2CCCCC2)c2ccccc21 (centres undefined)	0.88	-1.7
CC[C@H]1OC(=O)[C@H](C)[C@H]2OC(c3cccc([N+](=O)[O-])c3)O[C@H]([C@H]2C)[C@@](C)(O)C[C@@H](C)C(=O)/C(C)=C/[C@H]1C (some centres undefined)	0.65	-6.9
O=C(Nc1ccc(F)c(F)c1)C1CCCN(S(=O)(=O)c2ccc(Br)s2)C1 (centres undefined)	1.5	2
CC(C)c1ccc(CN(C(=O)COc2ccccc2Cl)C2CCS(=O)(=O)C2)cc1 (centres undefined)	1.1	0.99
COc1ccc(CCNC(=O)C(=O)NCc2ccncc2)cc1	1	0.017
COCCCNC(=O)c1c[nH]c2ccc(S(=O)(=O)N(C)c3cccc(C)c3)cc2c1=O	1	0.26

All compounds of this part, from the start:
SMILES	CBX7 inh	CBX7 inh z-score
COc1ccc(-c2noc(CN(C)S(=O)(=O)c3ccc(C)cc3)n2)cc1	1	0.31
COc1ccccc1OCC(O)Cn1c(=N)n(CCN2CCCCC2)c2ccccc21 (centres undefined)	0.88	-1.7
CC[C@H]1OC(=O)[C@H](C)[C@H]2OC(c3cccc([N+](=O)[O-])c3)O[C@H]([C@H]2C)[C@@](C)(O)C[C@@H](C)C(=O)/C(C)=C/[C@H]1C (some centres undefined)	0.65	-6.9
O=C(Nc1ccc(F)c(F)c1)C1CCCN(S(=O)(=O)c2ccc(Br)s2)C1 (centres undefined)	1.5	2
CC(C)c1ccc(CN(C(=O)COc2ccccc2Cl)C2CCS(=O)(=O)C2)cc1 (centres undefined)	1.1	0.99
COc1ccc(CCNC(=O)C(=O)NCc2ccncc2)cc1	1	0.017
COCCCNC(=O)c1c[nH]c2ccc(S(=O)(=O)N(C)c3cccc(C)c3)cc2c1=O	1	0.26
CCCN(CCC)CCCNS(=O)(=O)c1ccc2c(c1)CCN2C(=O)C1CCC1	1	0.27
Cc1ccc(-c2nc3ccc(Cl)cc3nc2-c2ccc(C)cc2)cc1	1.8	5.3
COc1ccc(Nc2cc(C(=O)O)c3ccccc3n2)cc1OC	1	0.17
Cc1ccccc1NC(=O)c1cc(S(=O)(=O)N2CCOCC2)cs1	1.1	1.5
Cc1ccc(Cn2c(=O)n(CCC(=O)NCc3ccccc3)c(=O)c3sccc32)cc1	1.1	2.5
Cc1ccccc1N1C(=O)c2ccccc2C1Nc1ccccc1Cl (centres undefined)	1	0.052
CCCOc1ccc(N2C(=O)CC(N3CCN(c4cccc(C(F)(F)F)c4)CC3)C2=O)cc1 (centres undefined)	0.98	-0.15
Cc1ccc2c(c1)N(CC(=O)NCc1ccccc1Cl)C(=O)CO2	1.2	2.9
CCOc1cccc(C2Nc3ccccc3NC3=C2C(=O)CC(c2ccc(Cl)cc2)C3)c1 (centres undefined)	0.94	-1.1
CCC(C)NC(=O)c1ccc2c(c1)N(Cc1ccccc1)C(=O)c1ccccc1S2 (centres undefined)	0.95	-1.3
Cc1ccc(S(=O)(=O)c2nc(-c3ccccc3F)oc2N2CCCCCC2)cc1	0.91	-2.3
O=C1CC(NCCCc2ccccc2)C(=O)N1c1ccc(Cl)cc1 (centres undefined)	1&1	1.9&-0.096
Cc1ccn2c(Nc3ccccc3C)c(-c3cc(Br)ccc3F)nc2c1	0.79	-2.2
O=C1CN(C(=O)c2c(F)cccc2F)C(c2ccccc2)c2cc(F)ccc2N1 (centres undefined)	0.96	-0.085
COCCCN1C(=O)Cn2cccc2C1C(=O)NC1CCC(C)CC1 (centres undefined)	0.92	-1.6
CCN1C(=O)c2ccccc2S(=O)c2ccc(C(=O)NCc3ccccc3Cl)cc21 (centres undefined)	1	0.5
O=C(c1ccc2c(c1)N(Cc1ccccc1)C(=O)c1ccccc1S2)N1CCC2(CC1)OCCO2	0.97	-0.76
Cc1cc(NC(=O)c2cc(-c3ccc(F)cc3)on2)n(-c2ccccc2)n1	0.99	-0.57
SMILES	CBX7 inh	CBX7 inh z-score
CC(C)Cc1nc(SCC(=O)Nc2nnc(CC(C)C)s2)n[nH]1	1	0.54
CCOC(=O)c1c(C)n(C)c2ccc(OCC(O)CNC3CCCC3)cc12 (centres undefined)	0.95	-2.3
CC(C)CC(=O)N1CC(=O)Nc2ccc(Br)cc2C1c1ccc(F)cc1 (centres undefined)	0.98	-0.33
Cc1cccc(Cc2c(C)nc3c(C(=O)N4CCN(Cc5ccc6c(c5)OCO6)CC4)cnn3c2C)c1	0.9	-2.8
CCOC(=O)c1cccc(NC(=O)CC2C(=O)N(c3ccc(F)cc3)C(=O)N2Cc2ccccn2)c1 (centres undefined)	1	1.1
CCOCCCNC(=O)c1cccc(NC2=NC3CS(=O)(=O)CC3S2)c1 (centres undefined)	0.89	-1.2
COc1cc(OC)c(NC(=O)c2ccc3c(=O)n4c(nc3c2)CCCCC4)cc1Cl	1	-0.096
COc1ccc(-c2cc(C(=O)NCCCn3ccnc3)no2)cc1OC	1	0.69
CCC(=O)N1c2ccc(S(=O)(=O)NCCN(C)Cc3ccccc3)cc2CC1C (centres undefined)	0.85	-0.6
Cc1onc(-c2ccccc2Cl)c1C(=O)NCCOc1ccccc1Cl	0.78&0.93	-0.86&-1.2
CC1CC(C)CN(c2nnc(NC(=O)Nc3ccc(Cl)cc3)s2)C1 (centres undefined)	0.91	-0.37
Cc1nc2ccc(S(=O)(=O)NC(C(=O)N3CCN(C)CC3)C(C)C)cc2s1 (centres undefined)	1	0.23
COc1cc2c(cc1OC)C(C(=O)NCCCN1CCC(C)CC1)C(c1ccccc1F)N(C)C2=O (centres undefined)	0.97	-0.37
COc1cccc(CNC(=O)Cc2nc3nc(C)cc(C)n3n2)c1	1.1	2.8
CCCCNC(=O)c1ccc2nc(-c3ccco3)c(-c3ccco3)nc2c1	0.75	-0.7
c1ccc(-c2csc(Nc3ccc4c(c3)OCO4)n2)cc1	0.37*!	-7*!
CCN(C(=O)c1cn(C)c(=O)c2cc(OC)c(OC)cc12)c1cccc(Cl)c1	1.2	1.8
Cc1nn(-c2ccccc2)c2sc(C(=O)O)cc12	0.98	-0.21
CCCCc1ccc(-c2nc(Nc3ccccc3Cl)c3ccccc3n2)cc1	1.4	5.2
COc1ccc(OC)c(NC(=O)c2c(NCc3ccncc3)sc3c2CCC(C)C3)c1 (centres undefined)	0.65	-18
CCOC(=O)c1c(NC(=O)COc2ccc(Cl)cc2)sc2c1CCC(CC)C2 (centres undefined)	1.1	2.6
COC(=O)c1ccc(NC(=O)CCc2c(C)nc3cc(-c4cccc(F)c4)nn3c2C)cc1	0.83	-2.7
Cc1ccc2c(c1)-c1c(cnn1CC(=O)N1CC=C(c3ccccc3)CC1)CO2	0.93	-1.3
CCCCOc1ccc(C(=O)Nc2nc(-c3ccc(OC)cc3OC)cs2)cc1	0.82	-1.3
CCCCNC(=O)c1nn2c(C(F)(F)F)cc(-c3ccccc3)nc2c1Br	0.96	-0.38
SMILES	CBX7 inh	CBX7 inh z-score
Cc1cc(Oc2cc(C#N)c3ccccc3n2)ccc1Cl	1.1	0.66
O=C(NCCc1ccccc1)c1ccc2c(c1)N(Cc1ccc(Cl)cc1)C(=O)CS2	1	1.2
Cc1[nH]c2ccc(OC(F)(F)F)cc2c1CCNC(=O)COc1ccc(F)cc1	0.78	-3.1
CCOC(=O)c1oc2ccccc2c1NC(=O)c1c(F)cccc1F	1.1	2.1
Cc1ccc(NC(=O)C2CCN(S(=O)(=O)c3ccc(F)cc3)CC2)c(C)c1	1	-0.16
COc1ccc(N2CCN(C(=O)CC3Oc4ccccc4NC3=O)CC2)cc1 (centres undefined)	0.74	-1.5
CCOC(=O)c1ccc(NC(=O)CC2Oc3ccc(C)cc3NC2=O)cc1 (centres undefined)	1	1.5
COc1ccc(OCc2nc(-c3ccc(Br)cc3)no2)cc1	1.4	0.5
Cc1ccc(CN2CCN(CC(=O)NCCC3=CCCCC3)C2=O)cc1	0.99	-0.2
Cc1[nH]c(C)c(C(=O)O)c1CNC1CCCCC1C (centres undefined)	0.99	-0.22
COc1ccc(CNC(=O)c2cc(C3CC3)on2)cc1	1.1	0.072
Cc1ccc(C(=O)c2ccc(Br)cc2)cc1S(=O)(=O)Nc1ccc(F)cc1	1	0.96
COc1ccc(NC(=O)c2cc3c(n(-c4ccc(Cl)cc4)c2=O)CC(C)(C)CC3=O)c(OC)c1	1	0.93
CCC(C)c1ccc(OCC(=O)Nc2cc(-c3nc4ncccc4o3)ccc2C)cc1 (centres undefined)	1.1	1.1
NC(=O)Cn1c(SCCOc2ccc(Cl)cc2)nc2ccccc21	0.99	-0.35
CCCCNC(=O)c1cc2c(n(-c3ccc(OC)cc3)c1=O)CC(C)(C)CC2=O	1	0.1
COC(=O)c1ccc(NC(=O)CSc2nnnn2-c2ccc(C)c(C)c2)cc1	0.84	-1.9
CC(=O)Nc1ccccc1-c1nc2ccc(C(=O)NCCN(CC(C)C)CC(C)C)cc2[nH]c1=O	0.97	-0.64
O=C(Nc1ccc2snnc2c1)Nc1ccc(F)cc1F	1	1.5
COCc1nc2ccccc2n1Cc1c(F)cccc1Cl	1.4	3.3
CCOC(=O)c1ccc(NC(=O)CCc2c(C)nc3cc(-c4ccccc4)nn3c2C)cc1	1.2	2.5
O=C(Nc1ccccc1F)c1cnc(N2CCN(c3ccccn3)CC2)c2ccccc12	1	0.42
CN(C)c1oc(COc2ccc(Cl)cc2Cl)nc1S(=O)(=O)c1ccccc1	0.78	-6.3
O=C(NCc1ccccn1)c1nnc(Cc2ccc(Cl)cc2)o1	0.71	-3.3
Cc1ccc(-c2nc(CS(=O)(=O)CC(=O)NCCN3CCCC3)c(C)o2)cc1	1	0.084

As entered above.
CBX7 inh, Cc1ccc(-c2nc(CS(=O)(=O)CC(=O)NCCN3CCCC3)c(C)o2)cc1 : 1
CBX7 inh z-score, Cc1cc(Oc2cc(C#N)c3ccccc3n2)ccc1Cl : 0.66

Single records, from the list above.
CCOC(=O)c1ccc(NC(=O)CC2Oc3ccc(C)cc3NC2=O)cc1 (centres undefined) reads CBX7 inh: 1; CBX7 inh z-score: 1.5
COc1ccc(CNC(=O)c2cc(C3CC3)on2)cc1 reads CBX7 inh: 1.1; CBX7 inh z-score: 0.072
CCCCNC(=O)c1cc2c(n(-c3ccc(OC)cc3)c1=O)CC(C)(C)CC2=O reads CBX7 inh: 1; CBX7 inh z-score: 0.1

Continued.
SMILES	CBX7 inh	CBX7 inh z-score
O=C(CN1CCN(Cc2ccc(Cl)cc2)C1=O)NCCCN1CCCC1	0.99	-0.15
COc1cc(OC)c(N(C)C(=O)c2ccc3c(=O)n4c(nc3c2)CCCCC4)cc1Cl	0.94	-1
Cc1nc2c(C(=O)NC3CCCC(C)C3C)cnn2c(C)c1Cc1ccccc1 (centres undefined)	0.97	-0.59
O=C(CSc1nnc(Cc2cc(=O)[nH]c(=O)[nH]2)n1-c1ccc(Cl)cc1)N1CCc2ccccc21	0.9	-2.5
COc1cccc(-n2ccnc2SCC(=O)Nc2nc3ccccc3s2)c1	1.2	3.6
CCCOc1ccc(C2CC(=O)NC3=C2C(=O)CC(C)(C)C3)cc1 (centres undefined)	1	0.088
O=C(NCC1CCCO1)c1ccc2c(c1)N(Cc1ccccc1Cl)C(=O)c1ccccc1S2 (centres undefined)	0.84	-4.1
COc1ccc(N2CCN(C(=O)CNC(=O)Cn3c(C)cc4ccccc4c3=O)CC2)cc1	1	1
COc1ccccc1CCNC(=O)c1cnc2cc(C)ccn2c1=O	0.99	-0.38
CCOC(=O)N1CCN(c2c(NCc3ccc(F)cc3)c(=O)c2=O)CC1	0.97	-0.81
O=C(NCc1cccs1)c1ccc2c(c1)N(Cc1cccc(Cl)c1)C(=O)CS2	1.1	4.3
COc1ccc(-c2c(C(F)(F)F)oc3c(CN4CCOCC4)c(O)ccc3c2=O)cc1OC	1	0.9
CCN1C(=O)CSc2ccc(C(=O)NCCCN3CCOCC3)cc21	1	0.44
CCOC(=O)c1cnn(-c2ccc(C)c(C)c2)c1C1CCN(C(=O)OC(C)(C)C)CC1	1	0.46
Cc1ccc(-c2nnc(Nc3ccc(OCC(N)=O)cc3)c3ccccc23)cc1S(=O)(=O)NC(C)C	0.72	-5.2
Cc1ccc(NC(=O)c2ccc(Cl)cc2)cc1C	0.86	-0.57
CCCNCC1C(Oc2ccc(Cl)cc2)C(=O)N1c1ccccc1C (centres undefined)	1.2	2.4
O=C(NCCOc1ccccc1F)Nc1ccc(Br)cc1	0.95	-0.6
Cc1ccc(CCNC(=O)C2CC(=O)N(C3CCCCC3)C2)cc1 (centres undefined)	0.97	-0.95
O=C(O)c1ccc(CNC2CC(=O)N(c3ccc(F)cc3)C2=O)cc1 (centres undefined)	0.93	-0.49
O=C(NCc1ccccc1)c1ccc2nc(-c3cccs3)c(-c3cccs3)nc2c1	1.1	0.096
Cc1nc2cc(-c3ccc(Cl)cc3)nn2c(C)c1CCC(=O)Nc1cccc(C(F)(F)F)c1	1.2	4.2
CN(C)c1ccc(-c2nc(SCC(=O)Nc3nccs3)c(-c3ccccc3)[nH]2)cc1	0.86	-2.4
O=C(c1cc(-c2ccccc2O)on1)N1CCN(C(c2ccccc2)c2ccccc2)CC1	0.92	-2.6
Cc1nc2c(c(C)nn2-c2ccccc2)c(C)c1CCC(=O)Nc1cc(F)ccc1F	1.1	1.1
SMILES	CBX7 inh	CBX7 inh z-score
CCOC(=O)c1cnc2ccc(OC)cc2c1Nc1cc(Cl)ccc1OC	0.71	-1.3
COc1ccc(-c2nc(-c3ccccn3)no2)cc1	1	0.37
Cc1nc2nc[nH]n2c(=O)c1NS(=O)(=O)c1ccc(Br)cc1	1	0.89
C=CCn1cc(C(=O)NCCCC)c(=O)c2cc(S(=O)(=O)N3CCC(C)CC3)ccc21	1	0.2
CCN(CC)CCNC(=O)c1cn(CC(C)C)c(=O)c2cc(OC)c(OC)cc12	1.3	2.9
COc1ccc(-c2c(C)nn3c(N4CCC5(CC4)OCCO5)cc(C)nc23)cc1OC	0.99	-0.035

High-throughput results: PubChem, several laboratories
